Screens from PubChem BioAssay.
GIV Gai3 FP: blocks GIV peptide binding to rat Galpha-i3. P08753. Galpha-i3/FITC-GIV peptide fluorescence polarization, 90 min; stronger effect = lower value; scaled: aluminum fluoride 0%, vehicle 100%. percent of control (FP), % (test concentration not listed). hit rate 0.42% among 210,000;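 active = replicate mean at 85% of control or lower, very high polarization wells dropped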;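 also: wells of about 15 µL received 100 nL stock; the first replicate is given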
Target sequence (P08753 whole entry, looked up): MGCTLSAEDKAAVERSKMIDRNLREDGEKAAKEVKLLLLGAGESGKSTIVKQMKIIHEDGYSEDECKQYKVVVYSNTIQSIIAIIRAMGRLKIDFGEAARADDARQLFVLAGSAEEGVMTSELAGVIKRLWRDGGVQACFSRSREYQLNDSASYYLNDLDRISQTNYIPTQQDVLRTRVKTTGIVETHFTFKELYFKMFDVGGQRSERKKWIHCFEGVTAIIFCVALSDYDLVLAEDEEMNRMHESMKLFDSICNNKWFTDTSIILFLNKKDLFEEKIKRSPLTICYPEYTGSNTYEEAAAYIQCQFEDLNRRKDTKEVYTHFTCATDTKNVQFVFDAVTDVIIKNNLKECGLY
Sa growth inh: S. aureus growth inhibition; S. aureus RN4220 growth, OD600, 20 h, 42 °C; stronger effect = lower value; relative growth, % (no concentration beside the values); hit rate 0.53% among 170,000; AID 720641;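 active = growth at 42 °C up to 50% and 20 or more points under that at 30 °C, or under 10% at both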;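 also: 300 nL library stock went into each well; scaled to the means of positive and negative controls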
HCMV UL50-53 inh: cytomegalovirus nuclear egress complex inhibition; AID 1918969; HTRF UL50-UL53 interaction, normalized percent inhibition; hit rate 0.15% among 190,000; inhibition, % (no concentration beside the values);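 active = both replicates at 50% or more, plus weaker picks with an unusually low signal ratio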;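 also: stock transfer was 100 nL into about 20 µL; 0% = negative control wells and 100% = wells with untagged competitor protein; inactives centre near -12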
Sa growth inh second temp: second read-out of Sa growth inh, no call of its own (marks repeat the call); relative growth, %; measured here: growth at 30 °C;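 optical density after 20 h as mean of two plates; 100% = untreated growth and lower means inhibition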
An asterisk follows results filed as active; . = no result given; & = joins results of further samples. Not a hit list; 0.83% or so of the library scored in one or more.

SMILES	GIV Gai3 FP	Sa growth inh	Sa growth inh second temp	HCMV UL50-53 inh
NC(=O)Cn1c2[n+](c3ccccc31)CC(O)CS2 (stereo not given)	97.9	116.9	99.7	-13.8
O=c1oc2ccccc2n1Cc1noc(-c2ccccc2Br)n1	106.0	.	.	-21.5
Cn1c(=O)oc2cc(S(=O)(=O)NCCC(=O)Nc3cccc(F)c3)ccc21	101.6	101.4	99.0	.
Cc1ccc(NC(=O)c2sc3nc(-c4ccc(F)cc4)cn3c2C)cc1Cl	104.0	.	.	-14.3
Cc1cc2nc(-c3cc(NC(=O)c4cc5ccccc5o4)ccc3Cl)oc2cc1C	110.4	100.1	93.4	-9.5
CCc1cccc(NC(=O)NC(=O)Cn2nnc(C(=O)OC)c2C(=O)OC)c1	108.4	89.2	96.2	.
CC(C)(C)S(=O)(=O)c1ccc(S(=O)(=O)C(C)(C)C)s1	.	85.6	87.8	5.0
Cc1ccc(NC(=O)c2ccc(CN3C(=O)CCn4nc(C)cc43)cc2)c(Cl)c1	102.0	93.0	89.7	.
COc1ccc2c(c1)c1c(c(=O)n(-c3cccc(Cl)c3)c(=O)n1CC(=O)N1CCCC1)n2C	106.1	116.3	84.0	.
COc1ccc(N2CCN(c3cc(C)nc4nc(-c5ccc(C)cc5)nn34)CC2)cc1	103.2&108.5	95.4	102.4	-12.1&7.3
COc1ccc(SCC(=O)N(C2CCCCC2)C2CCS(=O)(=O)C2)cc1 (stereo not given)	.	83.3	82.0	-26.2
COC(=O)COc1ccc(/C=C2\SC(=O)N(Cc3ccc(Cl)cc3)C2=O)cc1OC	101.2	.	.	-26.1
N#CNC1=NCN(CC2CCCO2)CN1 (stereo not given)	101.0	84.2	92.9	-8.0
CC(C)CNC(=O)N1[C@H](c2cccs2)[C@@H](C)C(=O)[C@@H](C)[C@@H]1c1cccs1	93.7	106.9	78.9	-16.1
CC1=NN(C(=O)Cc2ccccc2)C(O)(c2ccccc2)C1 (stereo not given)	.	108.4	83.8	4.1
CCOc1ccc(-c2cc3[nH]c(=O)n(-c4ccccc4C(F)(F)F)c(=O)c3s2)cc1	102.7	95.2	89.8	.
O=C(CCC1CCCC1)N1CCN(c2nc3cc(Br)ccc3n3cccc23)CC1	99.2	.	.	2.5
CCN1CCOC(CC(=O)Nc2cccc(OC)c2)C1=O (stereo not given)	102.5	53.9	39.7	.
CCOC(=O)Cc1nnc(C2CC(=O)N(c3ccccc3)C2)o1 (stereo not given)	101.1	82.8	87.9	-31.2
CCOC(=O)c1ccc2c(c1)N(CC(=O)N(C)c1ccccc1)C(=O)c1ccccc1S2	104.4	110.1	83.6	.
CC(CC(=O)Nc1ccc(Cl)cc1)NCc1nnc2ccccn12 (stereo not given)	.	95.0	93.4	1.2
CCCC(=O)Nc1ccccc1C(=O)OCc1cc(=O)n2nc(C(C)C)sc2n1	109.1	90.6	97.8	.
Cc1ccc(Cl)cc1NC(=O)N1Cc2c(sc3c2CCN(C)C3)-n2cccc2C1C (stereo not given)	109.9	.	.	-11.2
Cc1cc(C)[n+]2oc(C)cc2n1	105.8	88.5	81.9	-11.5
CC(C)CNC(=O)c1ccc2c(c1)[nH]c(=O)n2C(C)C	102.6	122.3	77.8	0.8
COc1ccc(NC(=O)C2CCN(c3cc(C)nc4c(-c5ccc(Cl)cc5)c(C)nn34)CC2)cc1	104.5	104.7	86.4	-25.0
Cc1ccc(C)c(COc2ccc(C)nc2NC(=S)NCc2ccccc2)c1	108.3	90.5	92.5	-8.4
COc1ccccc1NC(=O)c1c(NCc2ccc(OC)c(OC)c2OC)sc2c1CCC2	113.8	84.4	78.8	.
CCOC(=O)C1=C(C)N=c2s/c(=C\c3c(C)[nH]c4ccccc34)c(=O)n2C1c1ccc(OC)cc1OC (stereo not given)	226.6	.	.	-23.8
CCOCCc1nn2c(=O)cc(COC(=O)C3CCCCC3)nc2s1	100.1	87.1	87.5	.
Cc1ccc(C2=Nc3ccccc3N(CC(=O)NCc3ccc(F)cc3)C(=O)C2)cc1C	99.5	89.9	94.8	.
Cc1ccc(Nc2c3c(nc4nncn24)CCC3)cc1	104.1	105.9	82.2	-6.6
Cc1n[nH]c(C)c1Cc1c(F)cccc1Cl	102.5	25.9	0.0	16.4
CCC1Oc2ccc(C)cc2N(CC(=O)NCc2ccc(OC)cc2)C1=O (stereo not given)	106.2	90.8	96.8	3.8
CC1CCN(C(=O)c2cn(C)cc3c(=O)n(-c4ccccc4)nc2-3)CC1	100.9	.	.	-66.2
CCn1c(=O)c(N2CCC(C(=O)Nc3ccc4c(c3)OCCO4)CC2)c(C)n(-c2ccccc2)c1=O	104.0	.	.	-3.7
Cc1noc(C)c1S(=O)(=O)N1CCCN(C/C(O)=C(\C#N)c2nc3ccccc3[nH]2)CC1	.	81.7	92.8	-28.3
CCc1sc(Nc2ccc(Cl)cc2)nc1-c1cc2cccc(OC)c2oc1=O	109.7	113.1	83.8	.
COC(=O)c1ccc([C@H]2Nc3ccc(S(=O)(=O)Nc4ccc(C)cc4)cc3[C@H]3C=CC[C@H]32)cc1	109.1	93.7	76.7	-41.4
CNC(=S)NC1CCS(=O)(=O)C1 (stereo not given)	98.1	116.2	89.5	.

Four entries from above in a different format:
> Cc1noc(C)c1S(=O)(=O)N1CCCN(C/C(O)=C(\C#N)c2nc3ccccc3[nH]2)CC1
  GIV Gai3 FP: .
  Sa growth inh: 81.7
  Sa growth inh second temp: 92.8
  HCMV UL50-53 inh: -28.3
> CCc1sc(Nc2ccc(Cl)cc2)nc1-c1cc2cccc(OC)c2oc1=O
  GIV Gai3 FP: 109.7
  Sa growth inh: 113.1
  Sa growth inh second temp: 83.8
  HCMV UL50-53 inh: .
> COC(=O)c1ccc([C@H]2Nc3ccc(S(=O)(=O)Nc4ccc(C)cc4)cc3[C@H]3C=CC[C@H]32)cc1
  GIV Gai3 FP: 109.1
  Sa growth inh: 93.7
  Sa growth inh second temp: 76.7
  HCMV UL50-53 inh: -41.4
> CNC(=S)NC1CCS(=O)(=O)C1 (stereo not given)
  GIV Gai3 FP: 98.1
  Sa growth inh: 116.2
  Sa growth inh second temp: 89.5
  HCMV UL50-53 inh: .

Next section:
SMILES	GIV Gai3 FP	Sa growth inh	Sa growth inh second temp	HCMV UL50-53 inh
Cc1ccc(S(=O)(=O)CCc2nc(S(=O)(=O)c3ccc(C)cc3)c(N(C)C)o2)cc1	97.2	87.1	79.2	-11.9
CCCNC(=O)N1CCN(c2ccc(Cl)c(Cl)c2)CC1	99.9	97.4	84.6	-34.6
Cc1ccccc1NC(=O)C(C)Sc1nc2ncccc2[nH]1 (stereo not given)	101.7	83.5	82.0	-29.5
O=C(NC1CCCc2ccccc21)c1nc(Nc2ccc(F)cc2)c2ccccc2n1 (stereo not given)	97.7	.	.	-7.1
O=S(=O)(c1ccccc1)n1nc(-c2ccccc2)nc1NCc1cccs1	105.9	90.9	101.9	2.9
CC(C)n1c(O)c(N=NC(=S)NCCN2CCOCC2)c2ccccc21	.	109.7	94.2	-46.5
CC(C)N(C(=O)c1ccc(C(=O)N2CCCCC2)cc1)C(C)C	98.1	98.1	108.8	-7.4
CC(=O)c1cccc(NC(=O)c2ccc3c(c2)CCN3S(=O)(=O)c2ccccc2)c1	104.7	104.5	81.7	-26.5
CC(C)c1ccc(Nc2sc(C(=O)c3ccccc3)c(N)c2S(=O)(=O)c2ccccc2)cc1	99.7	103.7	96.5	.
CCC(C)NC(=O)c1ccc(Sc2ccc(Cl)cc2)c(NC(C)=O)c1 (stereo not given)	102.3	97.3	95.9	.
O=S(=O)(c1ccc(Br)cc1)N1CC(OCc2ccc(F)cc2Cl)C1	92.1	.	.	-2.3
CCCCc1c2c(nn1-c1ccccc1F)CC(c1ccccc1)CC2=O (stereo not given)	.	83.8	81.0	-8.5
COc1ccc(N=Cc2ccc(Br)s2)cc1	102.9	101.1	77.7	-7.3
COc1ccc(OCc2nnc3sc(-c4ccncc4)nn23)cc1	107.9	.	.	-32.2
CCOc1cccc(C2c3c(oc4ccc(F)cc4c3=O)C(=O)N2CCc2ccc(OC)cc2)c1 (stereo not given)	99.5	83.1	88.5	-1.2
CCN(CC)c1nc(C)nc2sc(C(=O)N3CCCCCC3)c(C)c12	99.2	126.2	85.3	.
Cc1ccc(S(=O)(=O)N2c3ccccc3S(=O)c3ccccc32)cc1	.	92.4	88.5	-22.2
O=C(CSc1ccc(Cl)cc1)N1CCc2c([nH]c3ccccc23)C1C(F)(F)F (stereo not given)	103.7	74.3	71.0	-40.3
COc1ccc(NC(=O)CC2(Cc3ccccc3)CCOC(C)(C)C2)cc1 (stereo not given)	.	96.5	96.7	0.4
NC(=O)C1CCN(C2CC(=O)N(Cc3ccc(F)cc3)C2=O)CC1 (stereo not given)	109.7	107.7	96.2	-33.7

Whole records as entered above. Order of values: GIV Gai3 FP, Sa growth inh, Sa growth inh second temp, HCMV UL50-53 inh
Results for `CCCCc1c2c(nn1-c1ccccc1F)CC(c1ccccc1)CC2=O` (stereo not given) = ., 83.8, 81.0, -8.5
Results for `CC(C)c1ccc(Nc2sc(C(=O)c3ccccc3)c(N)c2S(=O)(=O)c2ccccc2)cc1` = 99.7, 103.7, 96.5, .
Results for `CCN(CC)c1nc(C)nc2sc(C(=O)N3CCCCCC3)c(C)c12` = 99.2, 126.2, 85.3, .
Results for `COc1ccc(NC(=O)CC2(Cc3ccccc3)CCOC(C)(C)C2)cc1` (stereo not given) = ., 96.5, 96.7, 0.4

(cont.)
SMILES	GIV Gai3 FP	Sa growth inh	Sa growth inh second temp	HCMV UL50-53 inh
O=C(CCCSc1nc2ccccc2s1)Nc1nccs1	.	109.4	95.7	-21.7
O=C(O)CNC(=O)CSc1ccccn1	99.4	117.8	93.5	-40.5
N#CCCN(C(=O)Cc1noc2ccccc12)c1ccccc1	101.9	97.9	90.1	-18.8
O=S(=O)(c1ccc2nc(Nc3ccc4c(c3)OCCO4)ccc2c1)N1CCCC1	102.0	.	.	-4.2
CCN(CC)S(=O)(=O)c1cccc(-c2nnc(SCc3nc4cc(C(=O)O)ccc4c(=O)[nH]3)o2)c1	.	96.4	94.7	-8.8
CCC1Sc2ccccc2NC1=O (stereo not given)	104.4	57.6	62.8	.
CCOC(=O)Cn1c(-c2c(Cl)cccc2Cl)noc1=O	102.4	134.2	88.3	-9.7
O=C1CS/C(=N/C(=O)NC2(C(F)(F)F)Oc3ccc(Cl)cc3O2)N1 (stereo not given)	105.4	92.0	89.4	5.2
O=S(=O)(c1ccc(Br)cc1)N1CCC2(CC1)Nc1ccccc1-n1cccc12	97.5	.	.	-14.9
CN(C)S(=O)(=O)c1ccc2c(c1)nnn2CCNC(=O)Nc1ccc(Br)cc1	105.2	101.5	86.1	.
Cc1ccc(-c2csc3c(=O)n(C)c(SCC(=O)NC4CCCC4)nc23)cc1	104.2	.	.	1.3
O=C(Cn1cc(SCc2ccccc2F)c2ccccc21)N1CCCCCC1	107.5	122.5	89.8	.
Cc1ccc(NCc2ccccc2-c2nnc(-c3ccccc3Cl)o2)c(C)c1	104.3	96.2	85.8	-6.5
NNC(=O)CSCc1nc(-c2ccccc2)cs1	102.0	94.4	97.4	-26.4
Cc1cc(-c2ccc(NC(=O)C3CC3)c(C)c2)ccc1NC(=O)C1CC1	.	110.6	88.0	-13.0
CSCC[C@@H]1NC(=O)[C@@H]2CCCN2C1=O	103.1	105.5	80.9	.
Cc1ccc2oc(=O)c3cc(C(=O)NCCCN4CCCC4=O)sc3c2c1	116.4	.	.	-104.0
CCCN1C(=O)c2cc(C(=O)Nc3ccc(OC)c(OC)c3)ccc2C1Nc1ccc(OC)c(OC)c1 (stereo not given)	105.5	97.3	91.7	-11.4
Cc1cccc2nc(CSc3nnc(CN4CCCC4)n3Cc3ccccc3)cc(=O)n12	.	133.6	97.9	-2.0
CSC1=NCCN1C(=O)c1ccccc1	99.6	105.4	86.3	.
c1ccc(-c2noc(-c3cccnc3NC3CCCC3)n2)cc1	101.9	.	.	-31.8
CC1(C(=O)NC2CCCCC2)Cn2c(cc3ccsc32)C(=O)N1c1ccc(Cl)cc1 (stereo not given)	105.4	.	.	-20.7
NC(=O)CC1NC(=O)c2ccccc21 (stereo not given)	103.0	113.7	79.2	-0.3
Cc1cc(-n2c(C)cc(C(=O)CSc3nnc(COc4ccccc4Cl)o3)c2C)no1	.	63.5	88.8	-22.8
CC(C)CC1C(=O)N2CCC[C@H]2C2(O)O[C@](NC(=O)C3C=C4c5cccc6[nH]c(Br)c(c56)C[C@H]4N(C)C3)(C(C)C)C(=O)N12 (stereo not given in full)	.	100.1	89.5	0.5
COc1ccccc1OCc1nc2c3ccccc3ncn2n1	99.4	.	.	-20.0
CCCCCCNC(=O)c1sc(COc2cccc(C)c2)nc1C	105.1	.	.	-21.1
CCc1cccc(NC(=O)CCn2c(=O)c3cccn3c3ccccc32)c1	104.3	84.1	89.1	-8.9
N/C(=N\S(=O)(=O)c1ccc(Cl)cc1)c1ccccc1	.	90.6	91.4	4.1
O=C(Nc1ccc2c(c1)nc1n2CCN(C2CCCCC2)C1)C1CCCCC1	109.9	.	.	-46.5
COc1cccc(OC)c1OCCNCc1ccco1	.	103.5	94.6	-2.7
C#CCn1c(=O)c2c(ncn2C)n(C)c1=O	108.5	.	.	-19.6
Cc1ccc(C(=O)Oc2ccc(C3Oc4ccccc4C4CC(c5ccc(Cl)cc5)=NN43)cc2)cc1 (stereo not given)	102.4	.	.	-27.5
O=C1N=C(c2ccccc2)S/C1=C\c1ccc2c(c1)OCO2	227.4	85.1	84.6	-36.0
